PKD1 kinase inh: blocks activity of human protein kinase D1 | Q15139 | PKD1 kinase fluorescence polarization assay | actives 0.056% (n = 200,000) | inhibition, %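 (about 10 µM by stock and volumes)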;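 active = inhibition of 50% or more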;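 note: controls were vehicle for no effect and a reference inhibitor for full effect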
Target sequence (Q15139 whole entry, looked up): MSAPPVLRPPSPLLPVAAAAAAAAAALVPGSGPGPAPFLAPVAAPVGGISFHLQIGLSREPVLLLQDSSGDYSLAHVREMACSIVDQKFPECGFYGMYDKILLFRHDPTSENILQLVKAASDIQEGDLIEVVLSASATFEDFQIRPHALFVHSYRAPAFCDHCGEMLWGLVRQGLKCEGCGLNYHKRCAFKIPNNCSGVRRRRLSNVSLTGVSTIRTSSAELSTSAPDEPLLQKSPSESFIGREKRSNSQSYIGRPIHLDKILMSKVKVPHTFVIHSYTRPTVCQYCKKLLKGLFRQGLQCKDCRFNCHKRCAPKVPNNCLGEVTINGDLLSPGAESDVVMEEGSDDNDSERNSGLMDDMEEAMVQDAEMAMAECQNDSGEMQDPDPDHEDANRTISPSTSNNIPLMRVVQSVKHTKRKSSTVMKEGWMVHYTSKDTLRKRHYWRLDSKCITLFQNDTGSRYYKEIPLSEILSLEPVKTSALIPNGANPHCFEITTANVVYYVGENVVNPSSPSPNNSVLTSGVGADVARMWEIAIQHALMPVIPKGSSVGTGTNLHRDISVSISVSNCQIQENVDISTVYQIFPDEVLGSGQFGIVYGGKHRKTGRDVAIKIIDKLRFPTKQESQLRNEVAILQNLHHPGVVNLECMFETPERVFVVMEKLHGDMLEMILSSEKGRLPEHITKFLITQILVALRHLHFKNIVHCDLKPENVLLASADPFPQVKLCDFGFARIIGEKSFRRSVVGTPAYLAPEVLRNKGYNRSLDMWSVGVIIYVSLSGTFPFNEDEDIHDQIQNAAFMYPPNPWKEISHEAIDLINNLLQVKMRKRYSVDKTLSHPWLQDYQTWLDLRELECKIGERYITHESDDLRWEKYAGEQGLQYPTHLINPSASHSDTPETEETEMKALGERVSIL
INS promoter inh: TRM-6 insulin promoter activity inhibition | TRM-6 cells (human fetal islet line), insulin promoter-eGFP reporter, imaging; reporter expression induced with tamoxifen | inhibition, % at 2 µM | actives 0.9% (n = 130,000) | AID 1273;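 active = inhibition above the mean plus 3 SD, with well images judged a real hit on visual review, cut at about 60% in these data, passing the limit was not always enough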
GALR2 ag: GALR2 (human) receptor agonism; O43603; GALR2-expressing cells, agonist activation read-out; activation, %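 (tested at 5 µM)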; actives 0.48% (n = 140,000);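 active = above mean plus 3 SD of all compounds, about 5% in these data, not always enough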;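 note: 0% = vehicle buffer wells and 100% = reference agonist at full effect; tested in CHO reporter cells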
HSV replic up: increases HSV replication in cells. HSV replication augmentation in cells, fold increase. maximum fold increase. actives 0.005% (n = 220,000);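 active = peak rise of 1.5-fold or more in the series; tested in PC3 cells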;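 note: first round at 10 µM; read as green reporter fluorescence; hits show the peak of a series up to 25 µM; 1 = signal of infected wells without compound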
RGS16-Gao HTS: RGS16-Galphao interaction regulator (human); O15492+P09471; bead-based flow cytometry RGS16-Galphao binding, fluorescence; actives lie on both sides; binding response (% of control), % at 10 µM; actives 0.38% (n = 220,000);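 active = below 25% or above 175%, edge rows of some plates excepted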;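 note: Galphao activated by GDP with aluminum fluoride before binding; 100% = wells without compound and 0% = beads without RGS; some results beyond the cut were filed as inactive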
INS promoter inh cell count: further read-out of INS promoter inh, marked with its call; normalized cell count, %; measured here: cell count, toxicity; reference of the scale not given here;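 cells exposed to compound for 48 h; stained nuclei by imaging scaled within each plate; lower means fewer cells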
HSV replic up primary fold: further read-out of HSV replic up, marked with its call; fold increase; compound at 10 µM; measured here: primary screen fold increase 10 uM; tested in PC3 cells;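 GFP signal in the first replicate; 1 = infected wells without compound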
An asterisk follows results filed as active; i = inactive; nt = no result given.

SMILES	PKD1 kinase inh	INS promoter inh	INS promoter inh cell count	GALR2 ag	HSV replic up	HSV replic up primary fold	RGS16-Gao HTS
COC(=O)c1ccccc1NC(=O)c1ccc(COc2cccc3ccccc23)o1	-1	nt	nt	-2.2	i	0.98	98
Cn1cccc1C(=O)c1ccc(Cl)cc1Cl	6	12	128	-2.3	i	0.91	99
O=C(CSc1nnc(-c2ccc3c(c2)OCO3)n1-c1ccccc1)c1ccc(Cl)cc1	-12	-13	150	-0.8	i	0.98	112
O=C(N/N=C/c1cn(-c2ccccc2)nc1-c1cccs1)c1ccccc1F	-9	-40	103	-1.2	i	0.73	107
N/C(=N\S(=O)(=O)c1cc(C(F)(F)F)cc(C(F)(F)F)c1)c1ccccc1	nt	nt	nt	nt	i	0.99	101
CCc1ccc(N(C(=O)Cn2nnc(-c3ccccc3)n2)C(C(=O)NC2CCCCC2)c2ccccn2)cc1 (stereo not drawn)	-7	-7	36	-3.1	i	1	105
CCOC(=O)N1CCN(C(=O)CN(c2ccccc2)S(C)(=O)=O)CC1	2	nt	nt	nt	i	1	105
Cc1ccc(C(=O)NCC(=O)N2CCN(c3ncccn3)CC2)s1	0	20	32	-1.7	i	0.81	106
COc1cccc(C2CN(c3ccc(F)cc3F)N=C2c2cccs2)c1OC (stereo not drawn)	-4	10	142	41*	nt	nt	100
CCn1ccnc1CN(C)Cc1cn(C)nc1-c1ccccc1F	-10	-14	98	nt	i	1.2	108
Cc1ccc2cc3cc(C(=O)NCCCN4CCc5ccccc5C4)oc3nc2c1	0	-75	180	-2.1	i	0.97	104
O=C(Nc1ccc(Cl)c(Cl)c1)OCc1cccnc1	1	nt	nt	0.8	i	0.75	97
CC(=O)C1C(c2cn(-c3ccccc3)nc2-c2cccs2)NC(=O)NC1(O)C(F)(F)F (stereo not drawn)	-1	18	133	-0.4	nt	nt	101
CC(=O)Nc1cccc(NC(=O)C(=O)c2cn(CC(=O)N3CCCCC3)c3ccccc23)c1	-5	nt	nt	nt	i	0.97	102
COc1cccc(NC(=O)C2CCCN2C(=O)Nc2ccccc2F)c1 (stereo not drawn)	5	nt	nt	-1.9	i	0.84	100
COc1cc(OC)nc(/N=C/N(C)C)n1	-3	6	150	nt	i	1.2	98
Cc1ccc(-n2c(SCC(=O)N3CCCc4ccccc43)nnc2-c2cccnc2)c(C)c1	6	-100	145	-0.4	i	1	106
CC1CC1c1ccc(/C=C(\C#N)C(=O)Nc2ccc(Cl)cc2)o1 (stereo not drawn)	8	nt	nt	-0.7	nt	nt	100
CC/C(=N\NC(N)=O)c1ccc(OC(F)F)cc1	nt	nt	nt	nt	i	1.3	100
Cc1[nH]c2ccccc2c1/C=N/Nc1nc2ccccc2[nH]1	nt	nt	nt	nt	i	0.62	104
O=S(=O)(Cc1ccccc1)N1CCN(C2Cc3ccccc3C2)CC1	-4	3	131	-2.6	i	0.91	105
O=C(O)CSCC(=O)Nc1ccc(-c2nc3ccccc3s2)cc1	nt	nt	nt	nt	i	0.88	99
COc1cc([N+](=O)[O-])cc(/C=N/NC(=O)c2ccc(NC(=O)c3ccc(C)cc3)cc2)c1O	-1	-459	8	nt	i	0.65	92
COC(=O)C1=CN(C2CC2)C=C(C(=O)OC)C1c1ccc(C(F)(F)F)cc1	-5	32	145	nt	i	0.95	103
CCN(CC)S(=O)(=O)c1ccc(NC(=O)C2CCCO2)cc1 (stereo not drawn)	-5	-66	124	-0.4	i	1.1	92
CC(=O)Nc1cccc(C(=O)/C=C/c2ccc(C)cc2)c1	-1	nt	nt	0.1	i	0.65	103
CC1CN(C(=O)c2cc3c(s2)CCC3)CC(C)O1 (stereo not drawn)	3	32	75	-4.1	i	1.1	99
Cc1ccc(NC(=O)CSc2nc(N)cc(N)n2)cc1S(=O)(=O)N1CCOCC1	nt	nt	nt	nt	i	0.99	101
Cc1ccc(C(=O)c2cc([N+](=O)[O-])ccc2N2CCOCC2)cc1	-10	-72	10	1.1	i	0.74	21*
COC(=O)c1ccc(NC(=O)CCN2CCN(CCC(=O)Nc3ccc(C(=O)OC)cc3)CC2)cc1	5	nt	nt	-1.6	i	0.85	103
CN(C)S(=O)(=O)c1ccc(NC(=O)c2ccc(Br)o2)cc1	-2	6	74	-2.1	i	0.86	103
CC(C)Cc1cc(C(=O)NCCc2ccccc2)no1	1	0	33	-0.3	i	0.91	101
COC(=O)C1=C(C)NC(=O)NC1c1ccc(OCC(=O)N2CCCCC2)cc1 (stereo not drawn)	1	30	84	-1.8	i	0.92	93
N#CC1=C(N)n2c(s/c(=C\c3ccco3)c2=O)=C(C#N)C1c1ccco1 (stereo not drawn)	2	4	88	-1.3	i	1	87
CCOC(=O)Cc1csc(SCC(=O)NC(C)C23CC4CC(CC(C4)C2)C3)n1 (stereo not drawn)	-1	4	109	0.1	i	0.97	95
Cc1nc(C(=O)N(C)C)nn1-c1cc(Cl)cc(Cl)c1	4	43	108	-1.5	i	0.83	101
CCOC(=O)c1cc2n(c1/N=C/N(C)C)-c1ccccc1C2=O	8	-18	65	-1.4	i	0.99	97
O=C(c1ccco1)N1CCN(Cc2nnnn2CCc2ccccc2)CC1	-5	nt	nt	-0.5	i	0.9	95
O=[N+]([O-])c1ccc(S(=O)(=O)N(CCCN2CCOCC2)Cc2cccs2)cc1	10	nt	nt	nt	i	0.98	92
COc1ccc(-c2nnn(CC(=O)N(CCN3CCOCC3)C(C(=O)NC3CCCCC3)c3ccco3)n2)cc1 (stereo not drawn)	-6	nt	nt	nt	i	0.89	100
COc1cccc(OC)c1C(=O)Nc1nc(COc2ccccc2)cs1	-3	nt	nt	nt	i	0.94	107
CCCCN(c1ccc(C(=O)OC)cc1)S(=O)(=O)c1ccccc1	-2	27	69	nt	i	0.96	104
CC(C)(C)OC(=O)NCCCC(CCCNC(=O)OC(C)(C)C)C(=O)O	-7	nt	nt	-2.2	i	0.95	119
Nc1nonc1N/N=C\c1ccccc1	nt	nt	nt	nt	i	1.1	96
O=C(CSc1nc(Cc2ccccc2)nc2ccccc12)Nc1nc2c(s1)CCCC2	-3	nt	nt	-1.5	i	0.75	103

Taken from the listing for reference:
SMILES	PKD1 kinase inh	INS promoter inh	INS promoter inh cell count	GALR2 ag	HSV replic up	HSV replic up primary fold	RGS16-Gao HTS
CC(=O)Nc1cccc(C(=O)/C=C/c2ccc(C)cc2)c1	-1	nt	nt	0.1	i	0.65	103
CC1CN(C(=O)c2cc3c(s2)CCC3)CC(C)O1 (stereo not drawn)	3	32	75	-4.1	i	1.1	99
Cc1ccc(NC(=O)CSc2nc(N)cc(N)n2)cc1S(=O)(=O)N1CCOCC1	nt	nt	nt	nt	i	0.99	101
Cc1ccc(C(=O)c2cc([N+](=O)[O-])ccc2N2CCOCC2)cc1	-10	-72	10	1.1	i	0.74	21*
COC(=O)c1ccc(NC(=O)CCN2CCN(CCC(=O)Nc3ccc(C(=O)OC)cc3)CC2)cc1	5	nt	nt	-1.6	i	0.85	103
CN(C)S(=O)(=O)c1ccc(NC(=O)c2ccc(Br)o2)cc1	-2	6	74	-2.1	i	0.86	103
CC(C)Cc1cc(C(=O)NCCc2ccccc2)no1	1	0	33	-0.3	i	0.91	101
COC(=O)C1=C(C)NC(=O)NC1c1ccc(OCC(=O)N2CCCCC2)cc1 (stereo not drawn)	1	30	84	-1.8	i	0.92	93
N#CC1=C(N)n2c(s/c(=C\c3ccco3)c2=O)=C(C#N)C1c1ccco1 (stereo not drawn)	2	4	88	-1.3	i	1	87
CCOC(=O)Cc1csc(SCC(=O)NC(C)C23CC4CC(CC(C4)C2)C3)n1 (stereo not drawn)	-1	4	109	0.1	i	0.97	95
Cc1nc(C(=O)N(C)C)nn1-c1cc(Cl)cc(Cl)c1	4	43	108	-1.5	i	0.83	101
CCOC(=O)c1cc2n(c1/N=C/N(C)C)-c1ccccc1C2=O	8	-18	65	-1.4	i	0.99	97
O=C(c1ccco1)N1CCN(Cc2nnnn2CCc2ccccc2)CC1	-5	nt	nt	-0.5	i	0.9	95
O=[N+]([O-])c1ccc(S(=O)(=O)N(CCCN2CCOCC2)Cc2cccs2)cc1	10	nt	nt	nt	i	0.98	92
COc1ccc(-c2nnn(CC(=O)N(CCN3CCOCC3)C(C(=O)NC3CCCCC3)c3ccco3)n2)cc1 (stereo not drawn)	-6	nt	nt	nt	i	0.89	100
COc1cccc(OC)c1C(=O)Nc1nc(COc2ccccc2)cs1	-3	nt	nt	nt	i	0.94	107
CCCCN(c1ccc(C(=O)OC)cc1)S(=O)(=O)c1ccccc1	-2	27	69	nt	i	0.96	104

(listing goes on)
SMILES	PKD1 kinase inh	INS promoter inh	INS promoter inh cell count	GALR2 ag	HSV replic up	HSV replic up primary fold	RGS16-Gao HTS
N#Cc1c(NC(=O)C2CC=CCC2C(=O)O)sc2c1CCCCCC2 (stereo not drawn)	-6	-173	117	0.1	i	0.91	93
COc1ccc(C(=O)Nc2cccc(/C(C)=N/NC(=O)c3ccc([N+](=O)[O-])cc3)c2)cc1OC	-2	nt	nt	-1.4	i	1	102
CC(C)CC(NC(=O)C1CCCCC1)C(=O)NCc1ccccn1 (stereo not drawn)	-11	38	102	-1.6	i	0.95	103
Cn1nc(C(=O)NCc2ccc(F)cc2)c2ccccc2c1=O	-11	nt	nt	-0.4	i	0.8	95
CCc1nc2ccccc2nc1N1CCN(S(=O)(=O)c2c(C)cc(Cl)cc2C)CC1	nt	nt	nt	nt	i	1	106
CC(=O)N1C(C)(C)CC(=NOS(=O)(=O)c2ccccc2)CC1(C)C	4	46	70	nt	i	0.68	98
Cc1nc(-c2ccccc2)sc1-c1nc(-c2ccncc2)ncc1S(=O)(=O)c1ccccc1	-5	nt	nt	0.2	nt	nt	99
CCCn1nnc(NC(=O)COc2ccc(CC)cc2)n1	-2	-427	82	-3.1	i	1	111
COc1ccc(CC(=O)N2N=C(C)CC2(O)C(F)(F)F)cc1OC (stereo not drawn)	4	nt	nt	nt	i	0.94	125
CCOC(=O)c1c(NC(=O)c2ccccc2)sc2c(O)c(CN(CC)CC)ccc12	-13	nt	nt	-0.7	i	0.79	96
OC(CNCC1CCCO1)Cn1c2ccccc2c2ccccc21 (stereo not drawn)	-7	nt	nt	-0.4	i	0.75	102
CCCn1c(SCc2ccc(Cl)cc2)nc2c1c(=O)[nH]c(=O)n2C	-10	nt	nt	-3.7	i	0.78	105
O=C(Nc1ccc2ccccc2c1)NC1CCS(=O)(=O)C1 (stereo not drawn)	-10	67	147	nt	i	0.98	102
COc1ccc(OC)c(C(O)c2nc3ccccc3n2C(C)C)c1 (stereo not drawn)	-4	14	122	-1.5	i	0.87	102
CCOC(=O)CCNC(=O)N1CCCC(CCC(=O)N(C)CCc2ccccn2)C1 (stereo not drawn)	-4	nt	nt	nt	i	0.91	101
COc1cc(C)nc(N(Cc2ccccc2)S(=O)(=O)c2ccccc2)n1	-16	53	109	-2.4	i	1	99
O=C(O)CCn1[nH]c(=O)c2ccccc2c1=O	-1	-22	169	-3.4	i	0.97	98
CC(=O)Nc1cccc(Cn2cccn2)c1	-13	-1	51	-2.0	i	0.88	102
O=C1CC(N(O)c2ccccc2)C(=O)N1Cc1ccccc1 (stereo not drawn)	-9	22	138	-1.4	i	0.9	97
O=C1CCCN1c1ccc(S(=O)(=O)NCc2ccco2)cc1	-1	33	128	-1.3	i	1	106
CC1CN(C(=O)/C=C/c2ccc([N+](=O)[O-])s2)CC(C)O1 (stereo not drawn)	3	-300	93	nt	i	0.83	111
N#CCCN(Cc1cccnc1)C(=S)Nc1ccc(OC(F)F)cc1	-4	-109	45	nt	i	0.95	111
O=C(Cn1c(C(F)(F)F)nc2ccccc21)N/N=C/c1ccco1	1	27	91	nt	i	0.95	109

Compound activity from PubChem BioAssay.

Outcome played no part in choosing rows, and some 1.3% of all compounds hit somewhere here.
